BJeLR viability: BJeLR cell viability loss. BJeLR (HRASV12) viability, CellTiter-Glo ATP luminescence, 48 h; reference of the scale not given here. inhibition, % (concentration not given with the values). 300,000 tested, 0.17% active;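 active = replicate mean above 50%; inconclusive = above 50% but judged a plate artefact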;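 also: 50 nL library stock added to about 25 µL; numbers are from one replicate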
Bead autofluor: compound fluorescence in toxin protease inhibitor counterscreen; fluorescence intensity (no concentration beside the values); compound autofluorescence counterscreen, microsphere flow cytometry; stronger effect = higher value; AID 624483; 360,000 tested, 3.1% active;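 active = at least 3 SD above the mean of all compounds, about 16000 in these data; inconclusive = too few beads counted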;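 also: 100 nL of 1 mM stock went into each well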
PrP 5UTR inh: inhibition of PrP 5' UTR reporter expression | 340,000 tested, 0.35% active | inhibition, % (test concentration not listed) | cell-based PrP 5' UTR mRNA reporter, plate reader;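 active = every replicate at 50% or more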;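 also: 0 = median of the neutral control wells; tested in H4 reporter cells; numbers are from one replicate; inactives centre near -14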
Mtb hypoxia rep: reduces hypoxia-regulated biosensor signal in M. tuberculosis; M. tuberculosis hypoxia-regulated fluorescent reporter, fluorescence; fluorescence inhibition, % (test concentration not listed); 300,000 tested, 0.1% active; AID 1159583;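 active = 35 to 45% if threefold the growth effect, above 45% if 1.5-fold the growth effect; inactive = the rest, general growth blockers included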;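 also: wells of about 50 µL received 100 nL stock; 0% = vehicle wells and 100% = reference inhibitor wells; whole bacteria with a GFP reporter of the hypoxia response; strong numbers were not always called active; many hits fall short of the cut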
Sa ugtP lethal: compounds lethal to S. aureus RN4220 ugtP deletion mutant; OD600 growth, 16 h; some inactives read as strong as hits; growth inhibition, % (test concentration not listed); 330,000 tested, 0.54% active; AID 1259309;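 active = z-score under -3 and OD600 up to 0.15 on both plates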;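 also: plate controls were untreated wells for no effect and antibiotic for full effect; wells of about 80 µL received 100 nL stock; the first replicate is given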
Sa RN4220 lethal: kills Staphylococcus aureus RN4220; S. aureus RN4220 growth, OD600, 16 h; inhibition, % (no concentration beside the values); 330,000 tested, 0.33% active;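 active = z-score of -3 or lower and OD600 up to 0.18 on both plates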;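 also: plate controls were untreated cells for no effect and reference antibiotic for full effect; stock transfer was 100 nL into about 80 µL; one replicate is shown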
Mtb hypoxia rep growth: recorded beside Mtb hypoxia rep, whose call it bears; growth inhibition, %; measured here: M. tuberculosis growth (absorbance);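 0% = vehicle and 100% = reference antibiotic; read after six days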
Active calls of the source: *; ? = inconclusive; . = not tested or not shown; & = joins results of further samples. Compounds were not picked by outcome; 4% or so of the library scored in one or more.

entry	Structure	BJeLR viability	Bead autofluor	PrP 5UTR inh	Mtb hypoxia rep
1	O=C(NCc1n[nH]c(=S)n1-c1ccc(Br)cc1)c1ccc(S(=O)(=O)N2CCOCC2)cc1	-5	2511	-7	7
2	CCc1ccc(-c2cc(C(=O)NN3CCN(C)CC3)c3ccccc3n2)cc1	10	11271	-29	-3
3	O=C(O)CCC(=O)N1N=C(c2c(-c3ccccc3)c3cc(Cl)ccc3[nH]c2=O)CC1c1ccco1 (configuration not stated)	-12	2123	-5	-1
4	C#Cc1ccc(C2C=C(C(=O)NCc3nc4ccccc4[nH]3)OC(OCC)C2CCCO)cc1 (configuration not stated)	.	.	.	-7&-3
5	Cc1cccc2c1NC(=O)C2=Nc1ccc(Cl)cc1	-4	3054	10	5
6	FC(F)(F)c1cc(-c2ccccc2)nc(N2CCOCC2)n1	-6	2879	-11	20
7	COc1ccc(NC(=O)CCOc2ccccc2)c(OC)c1	-4	9923	-28	1
8	O=C(NCCOc1ccccc1Cl)c1ncn[nH]1	6	2363	-11	-4
9	CC(CNC(=O)CN(C)CC(=O)Nc1ccccc1Br)c1ccccc1 (configuration not stated)	.	5817	-7	0
10	CCNC(=S)Nc1ccc(NC(=O)c2ccccc2O)cc1	-2	4708	-16	18
11	COC(=O)Cc1c(C)c2ccc(OCc3nn[nH]n3)c(C)c2oc1=O	-17	21317*	-5	0
12	COc1ccccc1/C=C/CN1CCC(Oc2cc(C(=O)NC3CC3)ccc2OC)CC1	3	6428	-22	-5

entry	Mtb hypoxia rep growth	Sa ugtP lethal	Sa RN4220 lethal
1	9	3	0.6
2	-5	4	3.6
3	6	-14	-0.7
4	1&7	1&1	4.1&-3.2
5	3	11	4.4
6	15	44	2.1
7	4	-2	-0.7
8	-5	2	-3.8
9	0	-1	3.5
10	31	-4	4.1
11	8	-1	2.0
12	3	3	1.9

Other structures.
entry	Structure	BJeLR viability	Bead autofluor	PrP 5UTR inh	Mtb hypoxia rep
13	O=C(Nc1ncccn1)c1ccc([N+](=O)[O-])cc1	-21	3280	-21	13
14	COc1ccccc1CNC(=O)Cn1nnnc1CN(C)C(C)C	-1	3129	1	-9
15	Cc1ccc(C(=O)O)cc1NCc1ccncc1	9	4306	-19	17
16	O=C(O)c1ccc(S(=O)(=O)NC2CCCc3ccccc32)cc1 (configuration not stated)	-15	3366	-8	4
17	N#Cc1ccc(N=c2ssnc2Cl)cc1	45	4425&4156	-32&-18	6
18	COC(=O)[C@@]1(C)[C@H]2C(=O)N(C)C(=O)[C@H]2[C@H]2CN=C(SC)N21	.	3749	-6	1
19	C/C(=N\NC(=O)c1ccc([N+](=O)[O-])c(C)c1)c1ccccc1Cl	2	2483	-12	.
20	CCN(CC)CCNC(=O)C1CCCCN1S(=O)(=O)c1cccc([N+](=O)[O-])c1 (configuration not stated)	-9	4734	-20	10
21	CC(C)NC(=O)c1ccc(COCC(F)(F)C(F)F)cc1	-16	14531	-28	2
22	COc1ccc(-c2nnc3ccc(SC(C(C)=O)C(C)=O)nn23)cc1OC	9	8102	-16	-10
23	c1cnc(N2CC[N+]3(CCCC3)CC2)nc1	7	4684	-6	.
24	CCOc1ccc2oc(C(=O)N(C)CCc3ccc(OC)c(OC)c3)c(C)c2c1	.	3955	-14	-2

entry	Mtb hypoxia rep growth	Sa ugtP lethal	Sa RN4220 lethal
13	-2	4	2.5
14	-11	-3	-1.5
15	12	11	0.5
16	16	-4	-15
17	-1	7	9.6
18	10	-2	3.9
19	.	.	.
20	3	13	2.4
21	-4	12	3.6
22	-5	-9	-1.8
23	.	6	7.5
24	7	-1	1.0

Carrying on:
entry	Structure	BJeLR viability	Bead autofluor	PrP 5UTR inh	Mtb hypoxia rep
25	Cc1c(C(=O)N2CCN(c3ccccn3)CC2)oc2c(F)cccc12	4	3268	-21	-6
26	Cc1ccc2[nH]c(=O)c(C(c3nnnn3CC3CCCO3)N3CCOCC3)cc2c1 (configuration not stated)	-10	?	-26	-2
27	CCc1cccc(NC(=O)c2sc3nc4n(c(=O)c3c2C)CCC4)c1	-2	5381	-36	3
28	CCCCN1C(=O)C(=O)N(CC(=O)c2ccc[nH]2)C1=O	2	.	-17	-5
29	COCCCNC(=O)C1CCN(C(=O)c2cc3sccc3n2Cc2ccc(F)cc2)CC1	11	8895	-30	17
30	Cc1cccc(N=C2NC(=O)/C(=C/C=C/c3ccco3)S2)c1C	-1	2461	-18	6
31	COC(=O)c1ccc(Oc2c(F)c(F)nc(N3CCOCC3)c2F)cc1	-1	2574	8	-1
32	O=C(COC(=O)c1cccc(-n2cnnn2)c1)c1ccc(F)cc1	-5	.	-15	7
33	FC(F)(F)c1n[nH]c(=S)n1/N=C/c1ccco1	12	9518	0	.
34	Cn1c(N=Nc2ccccc2)nc2ccccc21	45	2540	4	9
35	O=C(CCNC(=O)c1ccccc1Cl)NNC(=O)c1ccccc1O	2	5542	-11	8
36	CC(=O)C=C(C)NC(Cc1c[nH]c2ccccc12)C(=O)O (configuration not stated)	.	.	.	-7

entry	Mtb hypoxia rep growth	Sa ugtP lethal	Sa RN4220 lethal
25	2	5	-2.7
26	-4	12	3.4
27	-5	16	7.1
28	-2	3	2.1
29	7	3	9.0
30	4	-17	10
31	0	52	-0.6
32	6	5	3.1
33	.	.	.
34	4	-8	5.0
35	9	2	0.3
36	-4	0	3.4

Carrying on.
entry	Structure	BJeLR viability	Bead autofluor	PrP 5UTR inh	Mtb hypoxia rep
37	COC(=O)CN(c1cc(OC)ccc1OC)S(=O)(=O)c1ccc(OC)c(OC)c1	1	4645	-6	.
38	O=C(Nc1ccc(S(=O)(=O)N2CCCCC2)cc1)C1CC(=O)N(Cc2ccccc2)C1 (configuration not stated)	8	?	2	0
39	CN1CCN(C(=O)CNc2ccc(C(F)(F)F)cc2[N+](=O)[O-])CC1	11	4299	1	7
40	CCOc1cc(C2c3c(n[nH]c3C)C(=O)N2c2ccc(C)cc2)ccc1O (configuration not stated)	-3	23172*	-19	8
41	CCN(CC)S(=O)(=O)c1cccc(N=Nc2c(O)n(CC)c(=S)n(CC)c2=O)c1	3	5030	-23	19
42	CCc1ccc(-c2nc(CS(=O)CC(=O)NCc3cccnc3)c(C)o2)cc1 (configuration not stated)	-2	2586	-15	-2
43	CSc1ccc(C2NN=C(c3ccccc3)S2)cc1 (configuration not stated)	-2	.	16	4
44	O=C1c2ccc(Br)cc2C(=O)N1c1ccc(Cc2ccncc2)cc1	.	4507	-3	-3
45	Cn1c(=O)c2c(nc(SCC(=O)Nc3ccccc3)n2C)n(C)c1=O	0	5573	-16	.
46	Cc1csc(=O)n1CC(=O)OCC(=O)Nc1cc(S(=O)(=O)N2CCOCC2)ccc1Cl	0	5721	-12	-8
47	CC1CCN(CCC(=O)NN=Cc2ccc([N+](=O)[O-])cc2)CC1	.	.	.	22
48	COc1ccccc1C=NNC(=O)CC(=O)NC1CCCCC1	.	.	.	15

entry	Mtb hypoxia rep growth	Sa ugtP lethal	Sa RN4220 lethal
37	.	4	2.4
38	-1	3	4.9
39	6	3	-1.1
40	12	-3	8.5
41	10	8	6.8
42	-6	1	-9.7
43	-9	-5	1.3
44	4	7	4.0
45	.	6	5.0
46	2	4	0.7
47	11	1	4.5
48	5	8	7.8

(continued)
entry	Structure	BJeLR viability	Bead autofluor	PrP 5UTR inh	Mtb hypoxia rep
49	CCc1ccc(-c2cn3nc(C)c(C)nc3n2)cc1	17	?	85*	19
50	COC(=O)CSc1nc(-c2ccccc2)nc2ccccc12	-1	2451	-16	-3
51	Cc1ccc2nc(N3CCN(c4ccccc4F)CC3)c(C=O)c(=O)n2c1	-10	2393	-21	3
52	COc1ccc(C(C)=O)c(Oc2nc(CN3CCOCC3)nc3scc(-c4cccs4)c23)c1	2	8739	-7	-1
53	COc1ccccc1C1CC(=O)Oc2cc(OC)c(OC)c(OC)c21 (configuration not stated)	.	3981	92*	0
54	COc1ccc(OC)c(CN2CCN(C(=O)c3ccc(C)c(S(=O)(=O)Nc4ccccc4OC)c3)CC2)c1	.	4419	2	-3
55	Cc1[nH]nc2c1C(C1CC=CCC1)C(C#N)=C(N)O2 (configuration not stated)	.	4594	-11	.
56	Cn1c(SCC(=O)N2CCN(c3cccc(Cl)c3)CC2)nnc1-c1ccncc1	-6	22921*	-23	2
57	CCOC(=O)c1c(C)oc2cc(Br)c(OC(C)C(=O)OCC)cc12 (configuration not stated)	-1	6277	0	6
58	O=C(COC(=O)c1ccc(Br)o1)Nc1cccc(S(=O)(=O)N2CCCCCC2)c1	6	.	-15	.
59	COc1ccc(CC(=O)Nc2cc(C)ccc2O)cc1OC	18	.	-7	2
60	CC(Sc1nnnn1C)C(=O)NC1CCCc2ccccc21 (configuration not stated)	14	4374	-8	-1

entry	Mtb hypoxia rep growth	Sa ugtP lethal	Sa RN4220 lethal
49	0	5	0.3
50	7	-3	3.6
51	-4	8	0.3
52	9	-1	1.4
53	6	1	7.2
54	9	-6	1.3
55	.	4	0.7
56	-6	5	1.8
57	-2	10	5.1
58	.	5	6.4
59	1	-2	3.7
60	6	-8	-2.7

(listing goes on)
entry	Structure	BJeLR viability	Bead autofluor	PrP 5UTR inh	Mtb hypoxia rep
61	NCCn1c(-c2ccccc2)cc(C(=O)O)c1-c1ccccc1F	-1	3779	-20	10
62	COc1ccc(S(=O)(=O)N(C)CC2Oc3ccc(NC(=O)Nc4ccc5c(c4)OCO5)cc3CC(=O)N(C(C)CO)CC2C)cc1 (configuration not stated)	.	.	.	8
63	O=C(NCCCN1CCCC1=O)C1CCN(S(=O)(=O)c2ccc(F)cc2)CC1	.	9410	-15	-1
64	O=C(NC12CC3CC(CC(C3)C1)C2)c1ccc(COc2ccc(Cl)cc2[N+](=O)[O-])o1	.	2930	-19	.
65	CCCCS(=O)(=O)Nc1ccc(N2CCOCC2)c(S(=O)(=O)N2CCOCC2)c1	9	6866	1	1

entry	Mtb hypoxia rep growth	Sa ugtP lethal	Sa RN4220 lethal
61	9	-1	4.6
62	11	-3	1.7
63	-2	2	3.2
64	.	-38	-11
65	-1	0	-3.3

Entries listed so far containing a Cl atom (9):
entry	Structure	BJeLR viability	Bead autofluor	PrP 5UTR inh	Mtb hypoxia rep
3	O=C(O)CCC(=O)N1N=C(c2c(-c3ccccc3)c3cc(Cl)ccc3[nH]c2=O)CC1c1ccco1 (configuration not stated)	-12	2123	-5	-1
5	Cc1cccc2c1NC(=O)C2=Nc1ccc(Cl)cc1	-4	3054	10	5
8	O=C(NCCOc1ccccc1Cl)c1ncn[nH]1	6	2363	-11	-4
17	N#Cc1ccc(N=c2ssnc2Cl)cc1	45	4425&4156	-32&-18	6
19	C/C(=N\NC(=O)c1ccc([N+](=O)[O-])c(C)c1)c1ccccc1Cl	2	2483	-12	.
35	O=C(CCNC(=O)c1ccccc1Cl)NNC(=O)c1ccccc1O	2	5542	-11	8
46	Cc1csc(=O)n1CC(=O)OCC(=O)Nc1cc(S(=O)(=O)N2CCOCC2)ccc1Cl	0	5721	-12	-8
56	Cn1c(SCC(=O)N2CCN(c3cccc(Cl)c3)CC2)nnc1-c1ccncc1	-6	22921*	-23	2
64	O=C(NC12CC3CC(CC(C3)C1)C2)c1ccc(COc2ccc(Cl)cc2[N+](=O)[O-])o1	.	2930	-19	.

entry	Mtb hypoxia rep growth	Sa ugtP lethal	Sa RN4220 lethal
3	6	-14	-0.7
5	3	11	4.4
8	-5	2	-3.8
17	-1	7	9.6
19	.	.	.
35	9	2	0.3
46	2	4	0.7
56	-6	5	1.8
64	.	-38	-11

Source: PubChem BioAssay (several laboratories)
